Assay outcomes (PubChem)
HPGD inh – qHTS Assay for Inhibitors of HPGD (15-Hydroxyprostaglandin Dehydrogenase); 15-hydroxyprostaglandin dehydrogenase [NAD(+)] (Homo sapiens), P15428; purified HPGD, NADH fluorescence kinetic, PGE2 substrate; Potency, µM, for inactives: top-dose activity change, negative = inhibition, most hits filed as inhibitors; hit rate 4.3% among 150,000; active = well fitted inhibition curve with a large enough effect (not every such curve was filed as active); inconclusive = small, poorly fitted or top-dose-only effect, or another doubt; inactive = no such curve, though single readings can be large or run the other way;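 further: top concentration of the series not given in the record; plate controls included wells without enzyme; inactives centre near -10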
Target sequence (P15428 whole entry, looked up): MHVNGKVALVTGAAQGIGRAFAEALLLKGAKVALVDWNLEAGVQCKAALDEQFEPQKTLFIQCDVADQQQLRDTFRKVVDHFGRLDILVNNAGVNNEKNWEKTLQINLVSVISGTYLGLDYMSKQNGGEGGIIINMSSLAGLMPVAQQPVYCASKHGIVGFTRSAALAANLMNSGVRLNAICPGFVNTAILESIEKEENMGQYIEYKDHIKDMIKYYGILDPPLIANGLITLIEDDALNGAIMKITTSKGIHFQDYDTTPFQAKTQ
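NADH formation kinetics: reaction with 30 uM PGE2 and 1 mM NAD+ (final), 20 nM enzyme, Tris-HCl pH 8 with Tween 20, after 15 min compound preincubation at room temperature. Fluorescence change, last versus first of five reads.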
Numbers without * were called inactive; ? = inconclusive; & = joins results of further samples. On the % scale 0 is the no-effect control and ±100 the full control effect; potency means the concentration at half of the fitted maximal effect. This is a subset; count on the stated rates, not on these rows.

entry	HPGD inh	canonical_smiles
1	-19%	O=C(c1cc(-c2ccccc2Cl)on1)N1CCN(C(=O)c2ccco2)CC1
2	-16%	COc1ccccc1CNC(=O)CCCOc1cc(=O)n(C)c2ccccc12
3	24%	COc1ccc2c(C)cc(SCC#N)nc2c1
4	2%	CCOC(=O)c1c(C)n(C)c2ccc(O)c(CN3CCC(C)CC3)c12
5	-3%	CCOc1ccc(-n2c(=O)[nH]cc(C(=O)N3CCc4ccccc43)c2=O)cc1
6	-5%	COCCNc1ncnc2nc[nH]c12
7	-10%	Cc1ccc(CN2CCNC(=O)C2CC(=O)O)cc1 (configuration not stated)
8	?	COc1ccc2c(c1)c1ncnc(N3CCN(Cc4ccc5c(c4)OCO5)CC3)c1n2C
9	-9%	CCOc1ccc(NCC(=O)N/N=C/C=C/c2ccccc2)cc1
10	2%	Cc1cccc(OCC(=O)N2CCC(N3CCCCCC3)CC2)c1
11	-13%&-7%	COC(=O)[C@@]1(Cc2ccc(OC)cc2)[C@H]2c3cc(C(=O)N(C)C)n(CCSCCO)c3C[C@H]2CN1C(=O)c1ccccc1
12	-18%	CCOC(=O)c1c(NCc2ccccc2)n[nH]c1C
13	-10%	CN(CCCNC(=O)C1CCCN(S(=O)(=O)c2cnc[nH]2)C1)c1ccccc1 (configuration not stated)
14	-16%	Cn1cc(/C(Cc2ccccc2)=N\O)c2ccccc21
15	?	CCOC(=O)c1[nH]c(C)c(C(=O)c2ccc(C)cc2)c1C
16	-12%	Cc1nc(CCNC(=O)Cc2ccc(F)cc2)cs1
17	?	COc1ccc(OCC(=O)Nc2cccc(OC)c2)cc1
18	-2%	C=CCSc1nc2c(N)ncnc2n1[C@@H]1O[C@H](CO)[C@@H](O)[C@@H]1O
19	-11%	COc1cc(C2NC(=O)NC(C)=C2C(=O)OC2CCCC(C)C2)ccc1O (configuration not stated)
20	-1%	NC(=O)C1(N2CCCCC2)CCN(CC(=O)Nc2ccccc2-c2ccccc2)CC1
21	-18%	CC(C)OC(=O)c1cccc(C(=O)Oc2ccccc2)n1
22	-12%	CCc1cc2c(=O)n(Cc3ccco3)c(SCc3c(C)noc3C)nc2s1
23	-8%	CC#CCN1c2ccccc2[C@]23C[C@@H](C(=O)OC)N(S(=O)(=O)c4ccc(C#N)cc4)C2=NC(C(=O)OC)=C(C(=O)OC)[C@H]13
24	-18%	COC(=O)C1=C(C)N=C2SC(C#N)=C(N)N2C1c1ccc(OC)cc1 (configuration not stated)
25	25µM*	CSc1nc(C)cc(SC(C(C)=O)C(=O)Nc2ccccc2)n1 (configuration not stated)
26	-16%	O=C(N/N=C/c1ccc(OCCCF)cc1)c1cc(OCC(F)(F)F)ccc1OCC(F)(F)F
27	-6%	CC(C)C(=O)NC(=S)Nc1ccc(S(=O)(=O)Nc2ccccc2)cc1
28	-21%	CCn1c(CCNC(=O)c2ccc(Cl)cc2)n[nH]c1=S
29	-11%	Cc1cc(C)n(-c2ncnc3c2oc2ccccc23)n1
30	-17%	CC(C)(C)NCC(=O)c1c[nH]c2ccccc12
31	-19%	COc1ccc(OC)c(C(=O)COC(=O)c2cc(C)oc2C)c1
32	-10%	CCCC1CC(CSc2ncn[nH]2)OC1=O (configuration not stated)

Seven compounds from above, ordered by molecular weight, lowest first:
entry	HPGD inh	canonical_smiles
29	-11%	Cc1cc(C)n(-c2ncnc3c2oc2ccccc23)n1
21	-18%	CC(C)OC(=O)c1cccc(C(=O)Oc2ccccc2)n1
4	2%	CCOC(=O)c1c(C)n(C)c2ccc(O)c(CN3CCC(C)CC3)c12
25	25µM*	CSc1nc(C)cc(SC(C(C)=O)C(=O)Nc2ccccc2)n1 (configuration not stated)
19	-11%	COc1cc(C2NC(=O)NC(C)=C2C(=O)OC2CCCC(C)C2)ccc1O (configuration not stated)
2	-16%	COc1ccccc1CNC(=O)CCCOc1cc(=O)n(C)c2ccccc12
26	-16%	O=C(N/N=C/c1ccc(OCCCF)cc1)c1cc(OCC(F)(F)F)ccc1OCC(F)(F)F

Retrieved by structure from the entries so far:
entry	HPGD inh	canonical_smiles
32	-10%	CCCC1CC(CSc2ncn[nH]2)OC1=O (configuration not stated)
30	-17%	CC(C)(C)NCC(=O)c1c[nH]c2ccccc12
20	-1%	NC(=O)C1(N2CCCCC2)CCN(CC(=O)Nc2ccccc2-c2ccccc2)CC1

Some of these compounds in order of their number in HPGD inh, descending.
| no. | SMILES | HPGD inh |
| --- | --- | --- |
| 20 | NC(=O)C1(N2CCCCC2)CCN(CC(=O)Nc2ccccc2-c2ccccc2)CC1 | -1% |
| 18 | C=CCSc1nc2c(N)ncnc2n1[C@@H]1O[C@H](CO)[C@@H](O)[C@@H]1O | -2% |
| 23 | CC#CCN1c2ccccc2[C@]23C[C@@H](C(=O)OC)N(S(=O)(=O)c4ccc(C#N)cc4)C2=NC(C(=O)OC)=C(C(=O)OC)[C@H]13 | -8% |
| 22 | CCc1cc2c(=O)n(Cc3ccco3)c(SCc3c(C)noc3C)nc2s1 | -12% |
| 30 | CC(C)(C)NCC(=O)c1c[nH]c2ccccc12 | -17% |

The list continues:
entry	HPGD inh	canonical_smiles
33	22µM*	COCCNC(=O)c1cc(Br)ccc1Cl
34	?	C=C(C)C1Cc2nc(N)nc(C)c2C1 (configuration not stated)
35	-6%	O=C(N/N=C/c1c(Cl)cccc1Cl)c1cccc(F)c1
36	-4%	Cc1occc1-c1nnc(SCc2nc3ccccc3c(=O)n2CC#N)n1C
37	-11%	Nn1c(SCC(=O)Nc2ccc(F)cc2)nnc1-c1ccccn1
38	?	Cc1cc(C)cc(NC(=O)CSc2nc3c(c(=O)[nH]2)CN(Cc2ccc(F)cc2)CC3)c1
39	-28%	Nc1nc(SCc2ccc(Cl)cc2Cl)nc2nc3c(cc12)CCCC3
40	-8%	O=C1C=C(NCc2ccc(Cl)c(Cl)c2)C2(CCCCC2)O1
41	?	CC(C)Cn1c(-c2cccs2)nc2nc3ccccc3nc21
42	-8%	COC(Cc1nnc(SC)n1-c1ccccc1)OC
43	-1%	O=C(CSc1ncc(-c2ccc(F)cc2)[nH]1)N1CCCCC1
44	-6%	O=C(Cn1cc(C(F)(F)F)ccc1=O)Nc1cccc(S(=O)(=O)N2CCOCC2)c1
45	-4%	COc1ccc(NC(=S)N2CCC(N(C)CCN3CCOCC3)CC2)cc1Cl
46	-19%	Cc1cc2c(SCc3ccccc3Cl)nc(N)nc2nc1C
47	-21%	Nc1cc(=O)[nH]c(SCC(=O)Nc2ccc(S(=O)(=O)N3CCOCC3)cc2)n1
48	-8%	CCOC(=O)C(C)Sc1nnc(CSc2nc3nc(C)cc(C)n3n2)o1 (configuration not stated)
49	?	Cc1ccc2c(COC(=O)c3n[nH]c4ccccc34)cc(=O)oc2c1
50	-14%	C=CCC(C)(O)c1ccccc1 (configuration not stated)
51	-7%	CN(Cc1ccccc1)c1nc(N)c([N+](=O)[O-])c(Nc2cccc(F)c2)n1
52	-12%	Cc1cccc(NC(=O)COC(=O)CNC(=O)C2CCCCC2)c1
53	1%	COc1ccc(C(=O)NNC(=O)CN2CCC(n3nnc4cc(F)ccc43)CC2)cc1
54	-7%	CCCn1c(C(O)c2ccc(OC)cc2)nc2ccccc21 (configuration not stated)
55	-16%	CCOC(=O)c1ccccc1OCc1cc(/C=N/n2cnnc2)ccc1OC
56	-7%	Cc1ccc(NC2OC(CO)C(O)C2O)cc1[N+](=O)[O-] (configuration not stated)

In the list so far, these have two or more sulfur atoms.
entry	HPGD inh	canonical_smiles
22	-12%	CCc1cc2c(=O)n(Cc3ccco3)c(SCc3c(C)noc3C)nc2s1
25	25µM*	CSc1nc(C)cc(SC(C(C)=O)C(=O)Nc2ccccc2)n1 (configuration not stated)
27	-6%	CC(C)C(=O)NC(=S)Nc1ccc(S(=O)(=O)Nc2ccccc2)cc1
47	-21%	Nc1cc(=O)[nH]c(SCC(=O)Nc2ccc(S(=O)(=O)N3CCOCC3)cc2)n1
48	-8%	CCOC(=O)C(C)Sc1nnc(CSc2nc3nc(C)cc(C)n3n2)o1 (configuration not stated)

Additional compounds:
entry	HPGD inh	canonical_smiles
57	-2%	Cc1c(C=O)c(=O)n(-c2ccccc2)n1-c1ccccc1
58	?	COc1ccc(S(=O)(=O)c2c(N)n(Cc3ccco3)c3nc4ccccc4nc23)cc1
59	-7%	N/C(=N\OC(=O)CC1CCCCC1)c1cccnc1
60	-4%	C/C(CC(=O)Nc1ccc(F)cc1)=N\NC(=O)Cc1csc(N)n1
61	-6%	Cc1ccc(N(CC(=O)N/N=C/c2cc(C)n(-c3ccccc3)c2C)S(C)(=O)=O)c(C)c1
62	-14%&-15%&-5%	CCSC(=N)N
63	-9%	CCN(CCCNC(=O)COc1cc(=O)n(C)c2ccccc12)c1ccccc1
64	-15%	COc1cccc(/C=N/NC(=O)CNC(=O)C2COc3ccccc3O2)c1O (configuration not stated)
65	?	CCN1CCN(c2ncc(C(=O)Nc3c(F)cc(F)cc3Br)c3ccccc23)CC1
66	?	COc1ccc2nc(/C=N/NC(=O)[C@H](C)NC(=O)OC(C)(C)C)ccc2c1
67	-11%	COc1ccc(-c2nnc(SCC(=O)Nc3sc4c(c3C#N)CCCC4)n2-c2ccccc2)cc1
68	-4%&-4%	C=C1C(=O)O[C@@H]2[C@H]3O[C@]3(C)CCC=C(C)CC[C@@H]12
69	-12%	O=C(Cc1c(F)c(F)c(F)c(F)c1F)OC12CC3CC(C1)C(=O)C(C3)C2
70	2%	CC(C(=O)NCc1ccccn1)N1C(=O)c2ccccc2C1=O (configuration not stated)
71	-9%	CCOC(=O)/C(C#N)=C/C1=C(N2CCCC2)CC(C)(C)OC1
72	-10%	Cn1ncc2c(Nc3ccccc3Br)ncnc21
73	-9%	CCCCC/C=C\C\C=C/C=C/C=C/[C@@H](O)[C@@H](O)CCCC(=O)O
74	-6%	C1COC1
75	0%	CN(c1ncc(C(F)(F)F)cc1Cl)n1cc(C(=O)O)c2ccccc2c1=O
76	-2%	O=C1C=CCC(/C=C/c2ccccc2)O1 (configuration not stated)
77	-5%	CCOC(=O)c1cnn(-c2nc(SC)nc3sc4c(c23)CCC4)c1N
78	-8%	CC(=O)c1ccccc1NC(=O)COC(=O)c1ccc2c(c1)nc(C)n2-c1ccccc1
79	-22%	O=C(O)c1[nH]nc2c1COc1ccccc1-2
80	-30%	CC(=O)C1=C(O)C(=O)N(CO)C1c1ccccc1F (configuration not stated)
81	-23%	N#Cc1c(Oc2ccc3ccccc3c2)sc(C(=O)c2ccccc2)c1N
82	-7%	CN(C)S(=O)(=O)N1CCN(CC(=O)Nc2cc(Cl)ccc2Cl)CC1
83	-4%	CC(Nc1cccc2ccccc12)C(=O)N/N=C/c1ccccn1 (configuration not stated)
84	3%	COCCn1c(CN(C)Cc2ccccc2)nc2c1c(=O)n(C)c(=O)n2C
85	-8%	O=C(CCS(=O)(=O)c1ccc(Br)cc1)Nc1ccc(Cl)cc1F
86	-8%	CCCCCC(=O)NC(=S)NNC(=O)CC
87	?	CCC1(CC)NC(=O)N(CC(=O)Nc2sc3c(c2C(N)=O)CCC3)C1=O
88	?	CC(=O)Nc1ccc(S(=O)(=O)c2c(N)n(CCN3CCOCC3)c3nc4ccccc4nc23)cc1
89	-21%	O=C(NC(=S)Nc1ccccc1N1CCCCC1)c1ccc(-c2cccc([N+](=O)[O-])c2)o1
90	-7%	O=C(CSCC(=O)NC1CC1)Nc1ccc2ccccc2c1
91	-3%	CCOC(=O)c1cc2sccc2n1CC(=O)OC(C)C
92	-20%	CCN(CC)c1ccc(N2C(=O)C3CCCCC3C2=O)cc1[N+](=O)[O-] (configuration not stated)
93	?	COCC(=O)N1CCC2(CC1)CN(c1cccc(-c3ccccc3)c1)C2
94	-2%	O=C(NCCCn1ccnc1)c1ccncc1
95	-22%	Cc1cc(C)nc(NC(=O)Nc2ccccc2C(F)(F)F)n1
96	-9%	Cc1c(C(=O)NC2=NCCS2)oc2ccccc12
97	-1%	COCCNC(=S)N(Cc1cccnc1)Cc1ccc(OC)c(OC)c1
98	-14%	Cc1sc(NC(=O)C2CCCCC2C(=O)O)c(C(N)=O)c1-c1ccccc1 (configuration not stated)
99	-13%	Cc1cc(C)cc(NC(=O)C2CCCN2C(=O)Oc2ccccc2)c1 (configuration not stated)
100	-8%	Cc1ccc(Cn2c(Sc3nccc(C)n3)nc3c2c(=O)[nH]c(=O)n3C)cc1
101	1%	Cc1cc(C)c(S(=O)(=O)Nc2nnc(C)s2)c(C)c1
102	-4%	CC(C)(C)NC(=O)Cn1cnc([N+](=O)[O-])n1
103	-27%	CCC1C(O)=C(c2ccccn2)C(=N)N1c1ccccc1 (configuration not stated)
104	-15%	CCc1nnc(SCC(=O)Nc2ccc(C(C)=O)cc2)nc1CC
105	-11%	CC(C)C(NC(=O)c1cccc(S(=O)(=O)N2CCOCC2)c1)C(=O)NCCc1ccccn1 (configuration not stated)
